# HPGD block: HPGD (human) dehydrogenase inhibition; actives 4.3% (n = 150,000); purified HPGD, NADH fluorescence kinetic, PGE2 substrate; P15428; Potency, µM, for the others: at the highest dose activity change, negative = inhibition, hits mostly inhibitors; AID 894; active = well fitted inhibition curve with a large enough effect (not every such curve was filed as active); inconclusive = small, poorly fitted or top-dose-only effect, or another doubt; inactive = no such curve, though single readings can be large or run the other way;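 further: top concentration of the series not given in the record; plate controls included wells without enzyme; inactives centre near -10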
# Target sequence (P15428 whole entry, looked up): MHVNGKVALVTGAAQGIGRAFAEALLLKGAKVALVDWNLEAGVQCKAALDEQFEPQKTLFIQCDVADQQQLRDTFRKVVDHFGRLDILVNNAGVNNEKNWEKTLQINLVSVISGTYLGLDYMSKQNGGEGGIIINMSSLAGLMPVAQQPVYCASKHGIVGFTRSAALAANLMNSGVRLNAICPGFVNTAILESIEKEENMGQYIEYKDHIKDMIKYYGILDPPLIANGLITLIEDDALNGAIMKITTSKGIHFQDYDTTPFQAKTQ
#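 20 nM HPGD preincubated 15 min at room temperature with compound in 50 mM Tris-HCl pH 8, 0.01% Tween 20. Started with 1 mM NAD+ and 30 uM prostaglandin E2; NADH fluorescence (360/450 nm) read 5 times over 30-s intervals, last minus first.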
# Active calls of the source: *; ? = inconclusive; & = joins results of further samples; [ ] = dose if it differs, or a comment. On the % scale 0 is the no-effect control and ±100 the full control effect; potency means the concentration at half of the fitted maximal effect.
HPGD block | Molecule
89.2%[activator] | CCc1nc(NCC(C)C)c(C#N)c2c1COC(C)(C)C2
-4.0% | Cc1ccc(CCC(=O)Nc2ncc(Cc3cc(Cl)ccc3Cl)s2)o1
? | CCOC(=O)c1nc2nc(-c3cccs3)cc(C(F)(F)F)n2n1
? | O=C(Oc1ccc2ccccc2c1Cl)N1CCCCCC1
-15.9% | O=C(CN1C(=O)c2cccc3cccc1c23)N1CCN(c2ccccc2)CC1
-5.5% | Cc1cccc(Cn2c(SCCN3CCOCC3)nc3c2c(=O)n(C)c(=O)n3C)c1
-9.5% | COc1cc(CN2CCC(C(=O)NC3CCCC3)CC2)cc(Br)c1O
-19.6% | O=C(C1CCC(CNc2nc(=S)[nH]c3ccccc23)CC1)N1CCN(c2ccccn2)CC1 (centres undefined)
-0.7% | Cc1ccc(NC(=O)/C(C#N)=C/c2ccc(Sc3nc(C)cc(C)n3)o2)cc1
-14.7% | C=CCSc1nnc(-c2ccncc2)n1-c1ccc(OCC)cc1

# (list continues)
HPGD block | Molecule
? | COc1ccc(C(C(=O)NC2CCCC2)N(CCN(C)C)C(=O)c2snc(C(N)=O)c2N)cc1 (centres undefined)
-7.3% | O=C1OCc2cc(NC(=O)C3CCCCC3)ccc21
-13.1% | CCC/C(=N\NC(=O)c1ccc(CSc2nncn2C)cc1)c1ccccc1
-16.3% | C=CCN(CC=C)S(=O)(=O)c1ccc2nsnc2c1
-0.6% | Cn1cnnc1SCC(=O)Nc1ccc2c(c1)CCC2
-13.0% | CC(=O)OCC1O[C@@H](O[C@@H]2C[C@H]3C(C)(C)[C@H](OC(C)=O)CC[C@]3(C)[C@H]3CC[C@]45C[C@]4(CC[C@H]5[C@@H](C)C[C@@H](O)[C@H](O)C(C)(C)O)[C@@]32C)[C@H](O)[C@@H](O)[C@@H]1O (some centres undefined)
-22.1% | CN(CCc1ccccn1)C1CC(=O)N(c2ccc(Cl)cc2)C1=O (centres undefined)
-8.4% | CC(C)(C)n1nnnc1C(c1cccs1)N1CCN(C(=O)c2ccco2)CC1 (centres undefined)
? | CCOC(=O)C(C)Oc1cccc2c(=O)n(CC(=O)N3CCCc4ccccc43)ccc12 (centres undefined)
-11.7% | COc1ccccc1C(=O)NC(C)c1nc2ccccc2[nH]1 (centres undefined)

# (cont.)
HPGD block | Molecule
-10.4% | Cc1sc(NC(=O)CN(Cc2ccc(F)cc2)C(=O)C(C)C)c(C(N)=O)c1C
-6.4% | CCOC(=O)CNC(=O)c1cccs1
-4.2% | O=C(Nc1c(Cl)cccc1Cl)c1ccc(-c2ccccc2)cc1
-14.9% | COc1nc(N/N=C/c2ccccc2F)nc(N2CCCCC2)n1
-9.5% | O=C(Nc1ccncc1)c1ccc(F)cc1
? | Cc1cccc(NC(=S)N=Nc2c(O)n(C)c3ccc(S(=O)(=O)N4CCOCC4)cc23)c1
? | O=C(CSc1nnc(Cc2cc(=O)[nH]c(=O)[nH]2)n1-c1ccccc1)N1CCCc2ccccc21
-19.1% | CCCCS(=O)(=O)NC1=NCN(CCO)CN1
-21.8% | CCOC(=O)NC(=O)C(=CNc1cccc(OC)c1)C(=O)NC(=O)OCC
-1.4% | O=C(Nc1ccccc1C(=O)N1CCN(Cc2ccccc2)CC1)c1ccccn1

# Continued.
HPGD block | Molecule
-7.6% | CC(C)[C@@H]1NC(=O)N(c2ccc(Oc3ccccc3)cc2)C1=O
-2.6% | Cc1ccccc1Cn1nc(C)c(NC(=O)c2cc3n(n2)C(C(F)F)CC(C(F)F)N3)c1C (centres undefined)
-7.2% | O=C(NCc1cccc(C(F)(F)F)c1)c1cccc(S(=O)(=O)NCc2ccccc2)c1
-9.8% | COc1ccc(C2CC(=O)Oc3cc(C)c(Cl)cc32)cc1 (centres undefined)
-4.5% | COc1ccc(OC)c([C@@H]2OCCC=C[C@H]2C)c1
-10.0% | CC1=C(C)/C(=N\OS(=O)(=O)c2ccc(C)cc2)C=CC1=O
-13.7% | CCOc1ccc(N/N=C(/C#N)C(N)=O)cc1
-9.7% | CCCCn1cnc2c(SC)ncnc21
-1.4% | O=S(=O)(NCc1ccccc1)c1cccc(S(=O)(=O)N2CCOCC2)c1
-7.2% | CNC(=O)CSc1nnc(-c2ccco2)n1-c1ccc(C)cc1

# Next section
HPGD block | Molecule
-15.4% | CCOC(=O)c1cc2sc(C)cc2n1C(C)C(=O)OCC (centres undefined)
? | O=C(CCc1nc(-c2ccccc2F)no1)NCc1ccco1
-109.1% | COc1ccc(-n2c(N)c(C(=O)NCc3ccco3)c3nc4ccccc4nc32)cc1
-12.6% | O=C1C(=O)N(Cc2cccnc2)C(c2ccccn2)/C1=C(/O)c1ccc(F)cc1 (centres undefined)
-12.7% | O=C(CCN1CCN(C(=O)c2ccco2)CC1)Nc1ccc(F)cc1
-1.3% | O=C(NCc1ccco1)c1ccccc1NS(=O)(=O)c1ccc(Cl)s1
-3.7% | Cc1nc(NS(=O)(=O)c2ccccc2)sc1NC(=O)OCCN(C)C
-14.5% | CC(=O)c1c(N2CCOCC2)nc(=S)n(-c2ccc([N+](=O)[O-])cc2)c1C
-6.6% | CCOC(=O)N1CCN(C(=O)Cn2nc(-c3ccc(Cl)cc3)ccc2=O)CC1
0.3% | O=C(NCN1CCN(c2ccccc2F)CC1)c1ccccc1

# The list goes on.
HPGD block | Molecule
-8.2% | Cc1cc(C)nc(-n2nc(C)c3c(C)c(C)c(C)nc32)n1
-12.3% | O=C(Nc1nc2c(s1)CCCC2)c1ccc(S(=O)(=O)N2CCCc3ccccc32)cc1
? | CC(NC(=O)CCSc1nc(-c2ccc3c(c2)OCO3)cc(C(F)(F)F)n1)c1ccccc1 (centres undefined)
? | CCCCNC(=O)c1cc2c(=O)n3cccc(C)c3nc2n(CCN2CCOCC2)c1=N
-24.0% | Cc1ccc(Nc2nc(-c3sc(NC(=O)c4ccco4)nc3C)cs2)cc1
-16.5% | Cc1nn(CC2CCCCC2)c(N)c1-c1ccccc1
-8.5% | COc1ccc2ccccc2c1CNCc1ccccn1
-4.0% | CCCOc1cccc(C(=O)Nc2cccnc2)c1
? | COc1cc2c(cc1OC)C1=C(C#N)CC/C(=N\S(=O)(=O)c3cccc(Cl)c3)N1CC2
-7.3% | COCCCn1cnnc1SCC(=O)Nc1ccc(S(=O)(=O)N2CCCC2)cc1

# Further records follow:
HPGD block | Molecule
-10.2% | COc1ccc(N2C(=O)CC(N(Cc3ccc(S(N)(=O)=O)cc3)C(C)=O)C2=O)cc1 (centres undefined)
-29.0% | CN1CCN(C2=Cc3cc(Cl)ccc3Sc3cc(F)ccc32)CC1
-10.9% | CC1(OC(=O)CCc2ccccc2)C(=O)C=C2C=C(c3ccc(C#N)cc3)N(Cc3ccccc3)C=C2C1=O (centres undefined)
-5.8% | CCOc1ccc(C(=O)O)cc1OC
-13.3% | Cc1csc(NC(=O)c2c(-c3c(Cl)cccc3Cl)noc2C)n1
-28.8% | CCN1CCN(c2cc(C)c3cc(NC(=O)c4cccnc4Cl)ccc3n2)CC1
-8.2% | CN1CCN(C(=O)c2ccccc2-c2nc(-c3ccccc3)no2)CC1
-2.0% | O=C(CN(Cc1cccs1)C(=O)CNS(=O)(=O)c1ccc(Cl)cc1)NCc1ccco1
-4.0% | O=C(COC(=O)CCc1c[nH]c2ccccc12)Nc1ccc([N+](=O)[O-])cc1
28.2µM* | Cc1ccc(S(=O)(=O)N(C)c2ccc(C(=O)N3CCC(C(N)=O)CC3)cc2)cc1

# (list continues)
HPGD block | Molecule
-0.1% | Clc1ccc(CN2CCCCCCC2)cc1
-20.6% | COC(=O)c1cnn(-c2cc(Oc3cccc(C)c3)ncn2)c1N
-7.7% | O=C(/C=C/c1cccs1)N1CCc2ccccc21
-4.5% | CCN(CC)S(=O)(=O)c1ccc(NC(=O)COC(=O)CCc2cc(OC)c(OC)c(OC)c2)cc1
-7.0% | CCCCCCn1c(C(C)NC(=O)c2ccco2)nc2ccccc21 (centres undefined)
-1.5% | C=CCn1c(=N)n(CC(=O)O)c2ccccc21
? | COc1ccc2nc(-c3cccc(N)c3)[nH]c2c1
-5.1% | COc1cccc(NC(=O)Cn2cc(C#N)c3ccccc32)c1
0.0% | O=C(O)c1ccccc1-c1ccccc1C(=O)Nc1cccc2ccccc12
-17.8% | COc1ccc(OC)c2[nH]c(=O)c(CCNC(=O)C3CCCCC3)cc12

# Next part.
HPGD block | Molecule
-14.3% | O=C1CC(Nc2ccc(N3CCOCC3)cc2)C(=O)N1c1ccccc1F (centres undefined)
-3.7% | O=C(NC1CCCC1)C1CC(=O)N(C2CCCCCCC2)C1 (centres undefined)
? | Oc1ccc(C2Nc3cccc4cccc(c34)N2)c(O)c1
3.2% | CCCCC(=O)N/N=C/c1ccc(N2CCOCC2)c([N+](=O)[O-])c1
-9.6% | COCCNc1nnc(SCC(=O)Nc2cc(-c3ccccc3)nn2-c2ccccc2)s1
? | CC1CCCCN1S(=O)(=O)c1ccc(C(=O)Nc2ccccc2-c2nc3ccccc3[nH]2)cc1 (centres undefined)
-1.9% | N#CCCn1cnc2ccccc21
-7.8% | Nc1ncnc(Nc2ccc(F)cc2)n1
-10.5% | CCc1ccc2[nH]c(=O)c(CN(Cc3ccccc3)C(=O)Nc3ccccc3OC)cc2c1
-5.7% | O=C(CCC(=O)c1cccs1)OCC(=O)N1CCN(S(=O)(=O)c2ccccc2)CC1

# Following part.
HPGD block | Molecule
-10.3% | CC(=O)N1CCN(Cc2ccc(Br)s2)CC1
-11.3% | Cc1nn(C(=O)c2ccco2)c(C)c1Sc1ccc(Cl)cc1
-28.2% | COc1ccc(C2C3=C(N=C4SCC(=O)N42)c2ccccc2CC3)cc1 (centres undefined)
-11.5% | CCOC(=O)N1CCN(C(=S)NC)CC1
-3.7% | CCn1ncc([N+](=O)[O-])c1C(=O)n1nc(C)cc1C
-10.4%&-6.9% | COCC1=C2c3ccccc3[C@H](C[N+](=O)[O-])C(C(=O)OC)(C(=O)OC)CC2C2C(=O)N(c3ccccc3)C(=O)C2C1 (some centres undefined)
-25.3% | O=C(COC(=O)c1c2c(nc3ccccc13)/C(=C/c1ccco1)CC2)NC1CCCC1
-18.9% | COc1ccc(C2NC(=O)c3sc(=S)n(-c4ccccc4)c3N2)cc1 (centres undefined)
-28.8% | COc1ccc2[nH]c(=O)c(CN(Cc3cccs3)Cc3nnnn3Cc3ccccc3)cc2c1
-13.8% | O=C1CC(N2CCN(c3ccc(C(=O)c4ccc(F)cc4)cc3)CC2)C(=O)N1 (centres undefined)

# (further entries)
HPGD block | Molecule
2.4% | O=C(Nc1nncs1)c1ccccc1Br
-1.8% | CCOC(=O)c1c(C)nc2cc(C)ccn12
25.1µM* | Cc1ccc2nc3sc(C(=O)N4CCOCC4)c(N)c3cc2c1
? | COc1ccc(/C=C/c2nc(-c3ccccc3O)n[nH]2)cc1
-9.7% | Cc1ccc(C)c(N(C)C(=O)COc2cc(=O)n(C)c3ccccc23)c1
? | Cc1nn(Cc2ccccc2)c(C)c1NC(=O)CSc1nc(-c2ccccc2)nc2c1cnn2-c1ccccc1
-1.1% | O=C(CN(Cc1ccccc1C(F)(F)F)C(=O)CNC(=O)c1ccco1)NC1CCCC1
-8.1% | CCc1nn(-c2cc(Oc3ccccc3)nc(-c3ccccc3)n2)c(N)c1C#N
-9.1% | COc1ccccc1N1CCN(c2nc3ccccc3nc2C(C#N)C(=O)OC(C)C)CC1 (centres undefined)
-6.6% | COC(=O)[C@@H]1[C@@H](C)N(CCc2cc(OC)c(OC)c(OC)c2)C(=O)N[C@H]1c1ccccc1

# Next results
HPGD block | Molecule
-16.3% | CCN1CCCC1CN(Cc1cc2ccc(C)cc2[nH]c1=O)C(=S)Nc1ccc(OC)cc1OC (centres undefined)
-9.1% | Clc1ccc(Cn2cc(/C=N/n3cnnc3)c3ccccc32)c(Cl)c1
0.4% | CC(=O)NC(C)C12CC3CC(CC(C(=O)O)(C3)C1)C2 (centres undefined)
-0.5% | Cc1c(NC(=O)CSc2nnc(-c3ccco3)n2-c2ccccc2)c(=O)n(-c2ccccc2)n1C
? | CCc1ccc(Cn2nnc(C(=O)Nc3ccc(OC)cc3OC)c2N)cc1
-4.8% | Cc1nn(CC(=O)N2CCOCC2)c(C)c1[N+](=O)[O-]
17.8µM* | CC(=O)c1ccc(Sc2ccc(C(C)=O)cc2)cc1
-8.3% | CCc1[nH]nc2c1C(Cc1ccccc1)C(C#N)=C(N)O2 (centres undefined)
-13.9% | CCOC(=O)c1sc(C)nc1C1CCN(C(=O)OCC)CC1
-9.3% | O=C(OCc1nnc(-c2ccccc2)o1)c1ccc2c(c1)C(=O)N(CCc1ccccc1)C2=O

# Next results
HPGD block | Molecule
-1.2% | Cc1cc2nc(CCN(Cc3cccnc3)C(=S)Nc3ccc(F)cc3)[nH]c2cc1C
-11.7% | CCCCC1=CC2=C(c3ccco3)C(=O)C(C)(OC(=O)c3ccc(OC)cc3)C(=O)C2=CO1 (centres undefined)
-4.1% | O=c1[nH]c2cc(Cl)ccc2n(CCNc2ncc(C(F)(F)F)cc2Cl)c1=O
-8.1% | O=C(CSCc1ccccc1)N1CCN(c2ccccc2)CC1
-2.9% | Cc1cc(C)n(C(=O)C2CCCN2S(=O)(=O)c2ccc(Cl)cc2)n1 (centres undefined)

# These rows are one share of the data. The share of hits here may be higher or lower than overall.
